Screening data (PubChem BioAssay)
MT1-MMP act inh – blockers of MT1-MMP proenzyme processing, primary screen, HT1080 RFP-PRO-GFP cells, GFP/RFP fluorescence. Matrix metalloproteinase-14 (Homo sapiens), P50281. GFP/RFP ratio fluorescence, overnight; percent of plate control window, DMSO zero. GFP/RFP ratio change, % at 20 µM. 0.061% of 360,000 active. AID 651647, 2012;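 active = GFP/RFP ratio change of at least 30% with cell ATP level not reduced by more than half and red fluorescence within 50% of control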; also: strong numbers were not always called active
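Test system: HT1080 RFP-PRO-GFP cells; Benchmarks: DMSO and RFP-L50D-GFP cell wells; Timing: cells overnight before dosing, compound overnight, 37 °C, 5% CO2; Compound: one 20 µM compound dose with 1% DMSO; Read-out: GFP/RFP fluorescence ratio.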
eIF4H inh – human eIF4H binding inhibitors, primary screen, translation initiation inhibitor project, biochemical, uHTS, fluorescence polarization; inhibition, % at 35 µM; 0.94% of 290,000 active; Eukaryotic translation initiation factor 4H (Homo sapiens), Q15056; eIF4H fluorescence polarization binding assay;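 active = 50% or more with normal probe brightness, or confirmed in later tests; inconclusive = above 50% with abnormal brightness, or retests that disagree; inactive = below 50% or failed in later tests; about a fifth of its hits are not listed in these tables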;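 also: calls also rest on retests at 20 µM and on dose response follow-up; 0% = protein and probe with vehicle and 100% = probe without protein; strong numbers were not always called active; many hits fall short of the cut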
UUG fidelity – modulators of yeast start codon fidelity, primary screen, whole organism, S. cerevisiae, single point, plate reader. S. cerevisiae UUG-firefly luciferase reporter, luminescence/redox ratio. activity score, % at 18.7 µM. 0.13% of 350,000 active. AID 602363, 2012;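 active = replicate mean at a twofold rise or more, about +100% in these data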;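 also: firefly luciferase made from a UUG start codon reports start codon fidelity; reporter light over untreated wells divided by growth signal over untreated wells; some hits fall short of that in this replicate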
Rce1 inh – yeast Rce1p protease inhibitors, primary screen, biochemical, fluorescence, cell-free homogeneous. CAAX prenyl protease 2 (Saccharomyces cerevisiae (strain ATCC 204508 / S288c)), Q03530. yeast membranes, quenched prenylated peptide cleavage fluorescence. calls only. 0.27% of 290,000 active;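 active = fall in fluorescence gain of 50% or more versus controls, with final raw signal at or below 3038400; inconclusive = same 50% fall but final raw signal above 3038400; inactive = fall in fluorescence gain under 50%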;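 also: plate controls were neutral control wells for no effect and wells lacking membranes for full effect; tested at 10 µM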
CSC inhib – cancer stem cell viability inhibitors, primary screen, luminescence. AID 2717, 2010. 1.1% of 300,000 active. inhibition, % at 7.5 µM. cancer stem cell-like cells viability;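 active = mean at 75% or more and at least half the replicates too; inconclusive = mean and replicates disagree; tested in HMLE shEcad cells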;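 also: 0% = median of negative and 100% = median of positive control wells; the first replicate is given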
Env fusion inh – inhibitors of HIV-1 Env-driven cell-cell fusion, primary screen, HeLa-JRFL effector, CEM21 target cells, luciferase | inhibition, % at 12.3 µM | 1.1% of 360,000 active | AID 651610, 2012;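 active = mean replicate inhibition score of at least 50 and every replicate individually at or above 50; inconclusive = only one of the two criteria met; inactive = mean below 50 and not all replicates reaching 50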;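 also: 0% = plate neutral controls and 100% = maraviroc near 300 nM; one replicate is shown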
PABP FP inh – PABP poly(A) RNA binding inhibitors, primary screen, biochemical, fluorescence polarization, uHTS; inhibition, % at 35 µM; 1% of 290,000 active; Polyadenylate-binding protein 1 (Homo sapiens), P11940;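 active = 50% or more with normal probe brightness, or confirmed in later tests; inconclusive = above 50% with abnormal brightness, or retests that disagree; inactive = below 50% or failed in later tests; about a fifth of its hits are not listed in these tables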;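 also: calls also rest on retests at 20 µM and on dose response follow-up; controls were probe without protein and protein plus probe with vehicle; some compounds called inactive have numbers as strong as hits; many hits fall short of the cut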
Target sequence (P11940 whole entry, looked up): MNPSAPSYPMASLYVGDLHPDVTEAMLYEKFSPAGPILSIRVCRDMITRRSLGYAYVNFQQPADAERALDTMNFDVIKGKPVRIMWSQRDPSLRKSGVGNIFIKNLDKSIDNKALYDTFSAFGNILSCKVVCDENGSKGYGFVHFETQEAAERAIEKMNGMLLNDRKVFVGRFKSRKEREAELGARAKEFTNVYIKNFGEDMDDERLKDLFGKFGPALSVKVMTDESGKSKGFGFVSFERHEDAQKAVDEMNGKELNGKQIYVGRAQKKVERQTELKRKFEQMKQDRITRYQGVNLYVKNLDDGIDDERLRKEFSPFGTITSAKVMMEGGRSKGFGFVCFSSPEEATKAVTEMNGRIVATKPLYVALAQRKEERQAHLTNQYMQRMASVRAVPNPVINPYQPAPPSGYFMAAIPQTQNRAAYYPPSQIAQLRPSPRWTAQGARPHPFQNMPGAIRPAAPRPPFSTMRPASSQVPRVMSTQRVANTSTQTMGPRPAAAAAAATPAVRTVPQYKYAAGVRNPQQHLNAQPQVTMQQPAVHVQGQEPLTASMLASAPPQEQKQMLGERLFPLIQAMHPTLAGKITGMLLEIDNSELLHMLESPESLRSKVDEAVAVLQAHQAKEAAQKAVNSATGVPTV
eIF4H inh retest – second read-out of eIF4H inh, no call of its own (marks repeat the call); inhibition, %; compound at 20 µM; confirmation average;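 mean of two retest wells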
PABP FP inh retest – second read-out of PABP FP inh, no call of its own (marks repeat the call); inhibition, %; compound at 20 µM; confirmation repeats;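 mean of two retest wells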
MT1-MMP act inh RFP – second read-out of MT1-MMP act inh, no call of its own (marks repeat the call); RFP signal change, %; measured here: RFP expression control read;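 0 = vehicle wells; hits needed this value within 50% of zero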
* hit, by the source's call; i = inactive; ? = inconclusive; · = no result given; & = joins results of further samples; [ ] = remark or other dose.

SMILES	MT1-MMP act inh	MT1-MMP act inh RFP	eIF4H inh	UUG fidelity	Rce1 inh	CSC inhib	Env fusion inh	PABP FP inh	others
CC(C)(C)c1ccc(NC(=O)COC(=O)c2ccc(NS(=O)(=O)c3ccc(F)c(F)c3)cc2)cc1	-0.2	-0.1	-6.8	2.1	i	-12.1	·	5.4
CCCOc1ccc(C(=O)NC2CCSc3ccccc32)cc1 (configuration not stated)	-1.7	-1.5	-2.2	-21.6	i	14.4	-13.1	-9.5
Cc1c(Cl)cnc(NC(=O)COC(=O)c2cccc(S(=O)(=O)N3CCOCC3)c2)c1Cl	0.4	1.9	·	-10.8	·	·	-22.0	·
CCN(C(=O)c1ccc2c(SCC(=O)O)c3c(nc2c1)CCC3)c1cc(Cl)ccc1OC	1.4	2.4	-8.0	9.9	i	-4.9	-22.5	17.9
O=C(C1=C[C@H](C2CCCCC2)C[C@H](OCc2ccc(CO)cc2)O1)N1CCOCC1	2.5	6.5	-2.1	1.7&1.1	i	4.6	2.2[16.7 µM]	-1.3
FC(F)(F)c1ccc(Cl)c(NC(=S)N/N=C/c2ccccc2Cl)c1	-2.4	0.6	0.7	-30.9	i	14.9	-22.4	-4.9
O=C(CNC(=O)c1ccco1)Nc1ccc(Cl)cc1	-0.8	-1.2	7.2	-18.9	i	-25.5	-1.1	-2.2
CC(C)n1cnc2c(Nc3ccc(F)c(Cl)c3)nc(NCCO)nc21	7.5	-3.5	10.7	-19.3	i	-5.0	-199.7	1.9
CC(=O)NCCn1c(SCC(=O)NC2CCCCC2)nc2ccccc2c1=O	1.8	2.4	-1.0	·	i	-4.7	-0.5	-5.7
C=CCOc1ccc(C2CC(C)=NN2c2ccccc2)cc1 (configuration not stated)	-3.6	0.2	6.7	·	i	5.7	-15.1	4.0
CCCSc1nc2c(c(=O)n(C)c(=O)n2C)n1C	-2.1	-3.2	-1.2	·	i	-16.2	0.3	-0.8
COc1cc(NC(=O)c2ccco2)c(OC)cc1NC(=O)CSc1ncc(-c2ccc(F)cc2)[nH]1	-0.2	-5.6	1.4	-14.6	i	-4.4	·	8.4
CCOC(=O)c1sc(SC)c(C(C)=O)c1C	0.5	3.1	-2.8	20.7	i	-15.4	·	-9.3
Cc1nc(NC(C)c2ccccc2)sc1C(=O)Nc1ccccc1 (configuration not stated)	-0.9	-0.7	-6.3	·	i	11.9	8.9	-1.0
Cc1noc(C)c1COc1ccc(CC(=O)NCCc2ccccc2)cc1	3.7	-2.5	-6.5	·	i	·	19.6	?
COc1cc(C(=O)NC(=S)Nc2ccc(Cc3ccncc3)cc2)cc(OC)c1OC	-0.3	-0.6	-2.3	-8.7	i	26.6	1.4	0.2
O=C(NNC1=NCCC1)c1cccc(S(=O)(=O)N2CCCCC2)c1	1.5	2.1	-8.2	·	i	-17.4	-14.4	17.2
COc1ccc(C2CC(=O)Nc3cc(OC)c(OC)cc32)cc1 (configuration not stated)	0.6	2.5	·	-14.6	·	·	-1.2	·
O=C(O)C1CCCCC1C(=O)NCc1ccc(F)cc1 (configuration not stated)	1.6	-5.9	2.5	-5.9	i	-18.2	-37.2	-3.7
O=C(CCC1CCCC1)NCCS(=O)(=O)N1CCN(c2ccc(F)cc2)CC1	2.8	-5.5	·	·	i	16.5	4.2	·
O=C(CSc1n[nH]c(-c2cccnc2)n1)Nc1ccc([N+](=O)[O-])cc1	4.1	5.8	-10.6	-5.8	i	1.1	2.0	-7.5
Cc1ccc(C(C)C)c(OCC(=O)Nc2ccc3c(c2)nc(CCN2CCCCC2)n3C)c1	-2.5	-5.4	-13.5	-6.7	i	13.8	17.2	-12.7
CCOC(=O)C(O)(CC(=O)Nc1ccc(Cl)cc1Cl)C(F)(F)F (configuration not stated)	3.0	4.5	-11.0	-8.1	·	-5.1	-1.5	-0.4
CC(C)C(=O)Nc1ccc(C(=O)NNC(=O)c2ccco2)cc1	-1.1	-8.4	2.4	·	i	2.4	·	11.1
CCCCOC(=O)c1ccc(NC(=O)c2nn(C)cc2Br)cc1	0.5	-6.7	-3.7	-1.2	i	5.0	-82.6	3.1
O=C(CN1CCN(Cc2cccc3ccccc23)CC1)NCCc1ccccc1	2.3	-1.5	-7.1	-9.4	i	16.0	-3.2	11.3
O=C(Cn1ncc2c1-c1ccccc1OC2)N1CCN(Cc2ccccc2)CC1	-3.3	-7.2	2.0	·	i	0.9	19.8	-2.3
Cc1nn(-c2ccccc2)cc1/C=N/NS(=O)(=O)c1ccccc1	7.9	2.9	-5.6	·	i	-7.1	11.7	-1.0
COc1cccc(NC(=O)CN(C)CC(=O)Nc2ccccc2-c2ccccc2)c1	-3.3	-5.5	7.7	-5.9	i	-1.7	31.6	20.3
CCOc1ccccc1NC(=S)N1CCN(c2ccc(O)cc2)CC1	-3.6	-1.1	1.6	-15.5	i	7.5	17.2	8.2

Overlap with the part before: four entries, followed by the next part.
SMILES	MT1-MMP act inh	MT1-MMP act inh RFP	eIF4H inh	UUG fidelity	Rce1 inh	CSC inhib	Env fusion inh	PABP FP inh	others
O=C(Cn1ncc2c1-c1ccccc1OC2)N1CCN(Cc2ccccc2)CC1	-3.3	-7.2	2.0	·	i	0.9	19.8	-2.3
Cc1nn(-c2ccccc2)cc1/C=N/NS(=O)(=O)c1ccccc1	7.9	2.9	-5.6	·	i	-7.1	11.7	-1.0
COc1cccc(NC(=O)CN(C)CC(=O)Nc2ccccc2-c2ccccc2)c1	-3.3	-5.5	7.7	-5.9	i	-1.7	31.6	20.3
CCOc1ccccc1NC(=S)N1CCN(c2ccc(O)cc2)CC1	-3.6	-1.1	1.6	-15.5	i	7.5	17.2	8.2
O=C(CCN1CCOCC1)Nc1ccc2c(c1)N(C(=O)CN1CCOCC1)c1ccccc1CC2	4.9	3.9	6.8	-11.9	i	-7.4	·	3.0
CC1(C)CC(=O)C(C=NCC2CCN(C(=S)Nc3cccc(Cl)c3)CC2)=C(O)C1	3.4	-5.9	-6.2	-22.0	i	5.1	-7.5	-2.9
Cc1cn2c(N)c(C=C3C=C(Cl)C(=O)C(Cl)=C3)c(=O)nc2s1	-135.2	-2.1	?	·	·	·	-9.9	?
Cc1[nH]c(SCC(=O)Nc2cc(S(C)(=O)=O)ccc2Cl)nc1Cc1ccccc1	-2.6	-3.2	·	-12.8	·	2.4	-69.5	·
CC(=O)c1cccc(NC(=O)C(CC(C)C)NC(=O)C2CCCCC2)c1 (configuration not stated)	0.0	-0.7	-1.8	-0.9	i	6.4	1.8	3.2
COc1ccc(C(=O)Nc2sc(C(=O)N(C)C)c(C)c2C#N)cc1[N+](=O)[O-]	8.3	-4.8	1.5	·	i	9.2	·	9.7
COc1ccccc1C1/C(=C(/O)c2ccc(C)cc2)C(=O)C(=O)N1CCN1CCOCC1 (configuration not stated)	1.3	3.7	1.1	·	i	11.1	3.6	2.4
Fc1ccccc1-c1n[nH]c(=S)n1C1CC1	-3.4	0.7	-4.2	-16.4	i	·	2.3	-3.2
CC1Cc2ccccc2N1C(=S)NC(=O)c1ccco1 (configuration not stated)	2.4	4.7	2.5*	·	i	-2.5	?	67.5*	eIF4H inh retest=99.5*;PABP FP inh retest=55.0*
O=C(Cn1nnc2ccccc2c1=O)NCc1ccco1	-1.0	3.2	3.3	-12.7	i	-9.0	·	9.1
Clc1cc(Cl)c(OCCCCn2cncn2)c(Cl)c1	0.5	-5.7	4.1	-23.2	i	-27.1	-4.3	1.1
O=C1CC(c2ccc(F)cc2)Cc2nc(NCc3ccco3)ncc21 (configuration not stated)	4.7	3.4	-5.4	-12.5	i	0.0	·	5.3
O=c1cc([O-])[n+]2c3n1CCCN3CCC2	0.9	5.3	-2.5	-10.2	i	-6.7	-6.8	-5.7
O=C1N=c2ccccc2=C1c1sc(NS(=O)(=O)c2ccccc2)nc1O	-4.9	-4.7	2.7	·	i	0.8	17.5	7.4
COC(=O)c1ccc(/C=N/Nc2nc(-c3ccc(C)cc3)cs2)cc1	-0.3	1.1	-13.3	-10.7	i	-11.3	·	-0.4
O=C(c1ccc(Cl)c(S(=O)(=O)N2CCCC2)c1)N1CCN(Cc2ccccc2)CC1	2.3	-1.7	·	-13.3	·	·	-9.3	·
C=CCOC(=O)C1=C[C@H](c2ccc(C(F)(F)F)cc2)[C@@H](CCCO)[C@H](OCC)O1	-1.4	0.2	1.6	5.8	i	-1.3	13.6	0.6
CSc1ncccc1C(=O)OCC(=O)N1CCc2ccccc21	2.1	1.7	·	-9.6	·	·	-31.1	·
COc1cccc(CNC(=O)CCCc2nnc3n(C)c(=O)c4sccc4n23)c1	3.8	5.0	10.9	1.3	i	3.3	-2.9	0.7
CCc1nc(NCC(C)C)c(C#N)c2c1COC(C)(C)C2	-3.9	-4.4	-7.6	-23.1	i	9.9	5.2	8.8
CC(=O)N1CCN(C(=O)c2ccc(C)c(S(=O)(=O)N3CCCCC3)c2)CC1	-0.3	1.2	·	-30.1	·	-16.9	4.8	·
CN(C(=O)CCS(=O)(=O)c1cc2c(cc1Cl)NC(=O)CO2)C1CCCCC1	-2.9	4.3	-14.4	-8.9	i	-0.3	-10.3	-0.5
CC(C)(C)c1ccc(-n2ncc3c2CCCC3NC(=O)CN2CCCCC2=O)cc1 (configuration not stated)	-2.5	-21.7	-6.5	-13.4	i	27.1	4.1	-2.4
Cc1cccc(Cn2c(SCCN3CCOCC3)nc3c2c(=O)n(C)c(=O)n3C)c1	-2.4	2.6	-0.2	-5.0	i	-1.5	26.4	2.5
O=C(CN1C(=O)c2cccc3cccc1c23)N1CCN(c2ccccc2)CC1	-4.6	-7.5	-15.5	-9.7	i	-8.7	-13.9	14.9
CCn1c(SCC(=O)N/N=C/c2c[nH]c3ccccc23)nnc1-c1ccc(C)cc1	1.7	-2.9	-4.3	-3.2	i	-5.6	6.5	-11.8
CN(C)c1ccc(C=C2C(=O)OC3(CCCC3)OC2=O)cc1	-4.8	1.6	-10.6	·	i	-13.7	-16.6	-19.1
CN(CCOc1ccc(Br)cc1)CC(O)COc1ccc(C#N)cc1 (configuration not stated)	0.9	-5.2	-0.4	-7.9	i	20.0	4.3	5.7
COc1cc(CN2CCC(C(=O)NC3CCCC3)CC2)cc(Br)c1O	8.3	-1.0	-2.8	-13.5	i	-15.7	3.1	5.1
O=C(CSC1=NNC(c2ccccn2)S1)Nc1ccccc1 (configuration not stated)	-1.4	-13.5	19.4	-11.0	i	25.1	31.0	-10.0
CCOC(=O)c1nc2nc(-c3cccs3)cc(C(F)(F)F)n2n1	5.0	5.3	9.8	-3.2	i	-0.2	-7.5	2.8
Cc1ccc(CCC(=O)Nc2ncc(Cc3cc(Cl)ccc3Cl)s2)o1	8.5	-2.6	1.5	-11.5	i	86.2*	-62.6	29.5

Compounds were not picked by outcome; 3% or so of the library scored in one or more.
